High-throughput results (PubChem BioAssay)
Menin-MLL FL inh = qHTS Assay for Inhibitors Targeting the Menin-MLL Interaction in MLL Related Leukemias: Competition With Fluorescein Labeled MLL-derived Peptide; Fluorescence polarization, fluorescein-MLL peptide displacement from menin; FP activity change, % at 61.4 µM; 290,000 tested, under 10 active; inconclusive = falling polarisation curve, or a change in total fluorescence; inactive = total fluorescence flat and polarisation flat or rising; no compound was filed as active; the % refers to the polarisation; negative = inhibition;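 note: % of control where 0% means no effect; inhibitors lower the polarisation; unlabelled MLL peptide was the positive control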
TRPV1 potentiator = HTS Assay for Compounds that Act as Potentiators of the Vanilloid Receptor 1 | actives 0.02% (n = 320,000) | potentiation, % at 8.33 µM | Transient receptor potential cation channel subfamily V member 1 (Homo sapiens), Q8NER1 | TRPV1-expressing cells, Fluo-8 calcium influx, capsaicin EC20 potentiation; host cell line not named in the record; control for the full effect not named in the record | AID 540277, 2011; active means potentiation above 80%; inconclusive means 30% to 80%; inactive means below 30%; note: 0% is about no effect
Target sequence (Q8NER1 whole entry, looked up): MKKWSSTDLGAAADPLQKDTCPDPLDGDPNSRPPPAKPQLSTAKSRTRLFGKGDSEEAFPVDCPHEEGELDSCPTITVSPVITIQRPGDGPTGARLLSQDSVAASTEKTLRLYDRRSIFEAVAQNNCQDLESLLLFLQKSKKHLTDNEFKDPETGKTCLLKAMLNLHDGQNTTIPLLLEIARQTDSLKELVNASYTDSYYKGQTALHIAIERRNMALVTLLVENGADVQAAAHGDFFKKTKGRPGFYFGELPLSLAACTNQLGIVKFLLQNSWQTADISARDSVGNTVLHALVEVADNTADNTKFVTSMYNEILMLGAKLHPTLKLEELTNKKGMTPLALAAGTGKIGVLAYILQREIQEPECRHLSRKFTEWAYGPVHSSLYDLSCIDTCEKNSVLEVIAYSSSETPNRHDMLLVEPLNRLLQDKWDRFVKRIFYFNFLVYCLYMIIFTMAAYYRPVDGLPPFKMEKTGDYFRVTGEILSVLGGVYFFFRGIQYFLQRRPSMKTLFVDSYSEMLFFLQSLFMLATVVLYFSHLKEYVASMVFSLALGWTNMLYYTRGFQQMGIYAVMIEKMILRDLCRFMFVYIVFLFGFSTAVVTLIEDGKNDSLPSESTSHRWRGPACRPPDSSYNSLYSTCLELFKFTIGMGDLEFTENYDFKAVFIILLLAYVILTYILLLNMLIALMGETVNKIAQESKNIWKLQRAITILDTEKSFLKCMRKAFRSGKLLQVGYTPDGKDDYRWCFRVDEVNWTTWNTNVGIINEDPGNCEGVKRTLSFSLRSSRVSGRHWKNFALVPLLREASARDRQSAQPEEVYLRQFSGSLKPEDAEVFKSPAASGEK
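TRPV1-expressing cells were cultured overnight at 35.5C and loaded with Fluo-8 calcium dye for 40 to 90 min at room temperature. After a 10 s baseline, compound was added and calcium influx was read kinetically for 3 min (ex 480/em 520 nm).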
PINK1 modulator = A Quantitative High throughput Screen to Identify Chemical Modulators of PINK1 Expression; PINK1 immunofluorescence, high-content cytometry, 24 h; Potency, µM (highest dose often 76.6 µM), inactives show at the highest dose activation (PINK1 increase), usual class: activators; actives 0.2% (n = 410,000); AID 624263, 2012; active = well fitted activation curve with a large enough effect; inconclusive = small, poorly fitted or top-dose-only effect; inactive = flat fitted curve, though single readings scatter; cell line not stated here;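 note: potency is the fitted concentration of half-maximal effect; % of control where 0% means no effect; nearly all actives have a fitted effect of over 65% in size; a mitochondrial uncoupler was the plate control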
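Cells are seeded, rested 12 hours, then given compound at five concentrations or DMSO for 24 hours. After fixation, blocking and antibody staining, PINK1 amount and mitochondrial localization are scored; CCCP serves as control.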
ClpP mod = qHTS Assay for Activators of ClpP; ATP-dependent Clp protease proteolytic subunit (Bacillus subtilis (strain 168)), P80244; purified B. subtilis ClpP, FRET peptide cleavage, 20 min; Potency, µM (top dose mostly 57.5 µM), for inactives: top-dose activity change, negative = active; actives 1.9% (n = 340,000); AID 651965, 2013; active = well fitted falling curve with a large enough effect; inconclusive = small, poorly fitted or top-dose-only effect; inactive = no such curve, though single readings can be large or run the other way; note: potency is the fitted concentration of half-maximal effect; the source files actives as falling curves though it sought activators and does not explain the sign; nearly all actives have a fitted effect of over 65% in size; many hits overshoot -100%
Target sequence (P80244 whole entry, looked up): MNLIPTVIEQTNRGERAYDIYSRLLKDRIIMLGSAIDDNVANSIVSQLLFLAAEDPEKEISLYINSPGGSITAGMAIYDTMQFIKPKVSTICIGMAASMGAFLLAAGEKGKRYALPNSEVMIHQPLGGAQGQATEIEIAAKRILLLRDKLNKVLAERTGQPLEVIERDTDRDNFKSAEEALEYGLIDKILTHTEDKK
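Purified B. subtilis ClpP, 10 microg/mL final in Tris/HCl pH8 with KCl, BSA, glycerol and Tween-20, cleaved an Abz/nitrotyrosine-quenched decapeptide. Fluorescence (ex 320, em 430) was read at 0 and 20 min at room temperature. Delta was normalized to 5.8 microM ADEP and DMSO/no-enzyme controls.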
Sfp inh = qHTS Assay for Inhibitors of Bacillus subtilis Sfp phosphopantetheinyl transferase (PPTase) | 4'-phosphopantetheinyl transferase ffp (Bacillus subtilis), Q9F4F7 | Biochemical Sfp PPTase activity, qHTS | Potency, µM, inactives show max response, negative = inhibition, actives largely listed as inhibitors | actives 3.5% (n = 310,000) | AID 1490, 2009; active = well fitted inhibition curve with a large enough effect; inconclusive = small, poorly fitted or top-dose-only effect, or another doubt; inactive = no such curve, though single readings can be large or run the other way;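 note: the enzyme is Sfp with the accession as filed and its product quenches rhodamine fluorescence; potency is the fitted concentration of half-maximal effect; 0% = enzyme reaction without inhibitor and -100% = no enzyme wells; top concentration of the series not given in the record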
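Fluorescence-quenching assay with 15 nM Sfp, 5 uM rhodamine-CoA and 12.5 uM BHQ-2-labelled ybbR peptide in pH 7.6 Hepes/MgCl2 buffer. Enzyme was pre-incubated with compound for 15 min at room temperature. Rate was taken from the 30-min fluorescence change (525/598 nm).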
TRPML1 inh = qHTS for Inhibitors of the Human Mucolipin Transient Receptor Potential 1 (TRPML1); AID 624415, 2012; Mucolipin-1 (Homo sapiens), Q9GZU1; activity change, negative = inhibition, % (no concentration beside the values); actives 0.02% (n = 390,000); TRPML1-inducible cells, Ca2+ dye fluorescence, FDSS; hits give low values; inhibition of EC80 agonist-evoked calcium signal; in the data active means activity change below about -50%; inconclusive means about -30% to -50%; inactive means above about -30%;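 note: stimulus is agonist 54-4 at its EC80 concentration; % is set by controls: 0 for no effect and ±100 for the full control effect; compound concentration not given in the record; the text of the record puts the active cut at -80%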
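Tet-induced TRPML1-DL cells loaded with Ca8 no-wash calcium dye were read kinetically on FDSS. Compound addition was followed by EC80 agonist 54-4 (4 uM final); inhibition was read over 110 s.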
TRPML1 ag = qHTS for Agonists of the Human Mucolipin Transient Receptor Potential 1 (TRPML1). Mucolipin-1 (Homo sapiens), Q9GZU1. TRPML1-expressing cells, Ca2+ dye fluorescence, FDSS; host cell line not named in the record; reference of the full effect not given here. activation, % (no concentration beside the values). actives 0.12% (n = 410,000). AID 624414, 2012; in the data active = activation above about 50%; inconclusive = about 30% to 50%; inactive = below about 30%; note: 0% is about no effect; the text of the record puts the active cut at 80%
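TRPML1-DL cells, Tet-induced overnight (~16 h, 37 degrees C), loaded 45-90 min at room temperature with Ca8 no-wash calcium dye plus quencher. FDSS fluorescence: 10 s baseline, compound pin-transfer, 110 s agonist read, then EC80 54-4 (4uM final) and 110 s antagonist read.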
Starred values were filed as active, the others as inactive; ? = inconclusive; · = not tested or not shown; & = joins results of further samples; [ ] = dose if it differs, or a comment.

Every second line gives: TRPV1 potentiator, Menin-MLL FL inh, TRPML1 inh, Sfp inh, TRPML1 ag, ClpP mod, PINK1 modulator
Cc1occc1-c1nnc(SCC(=O)NC(C)(C)C)n1CC(C)C
  -19, -5.7, 3, 21%, -0.4, ·, 2.8%
Cc1ccc2oc(C(Cl)(Cl)Cl)cc(=O)c2c1
  4, 2.8, 5, 7%, -0.3, -0.7%, 8.9%[38.3 µM]
Cc1cc[n+](-c2[nH]c(=O)sc2/C=N/NC(=O)c2ccccc2[O-])cc1C
  -6, 1.1, ?, -7%, 1.5, 0.9%, 0.8%
CCOc1ccc2[nH]cc(S(=O)(=O)c3ccc(C)cc3)c(=O)c2c1
  0, -6.4, 1, 28%, -0.9, -10%, 1.3%
COc1cccc(C(C#N)N2CCOCC2)c1 (configuration not stated)
  -5, 0.0, 5, 12%, -0.7, -2.5%, -1.2%
O=C(/C=C/c1ccccc1)Nc1ccc(N2CCCCC2)cc1
  1, 2.8, 1, 15%, 0.3, 0.9%, ?
Cc1ccc(N2CSC3=C(C#N)C(c4cccs4)CC(=O)N3C2)cc1 (configuration not stated)
  -7, 13, -6, 1.4µM*, -0.2, 0.4%, 3.6%
CCc1ccc2[nH]c(=O)c(CN(CCO)C(=O)NCc3ccccc3)cc2c1
  ?, 4.6, -21, 6%, 1.5, -16%, 0.1%
Cc1nnc(SCC(=O)NC2CCCCCC2)n1C
  2, 1.9, 7, 13%, -0.6, 0.7%, -0.3%
COc1ccc(OC)c(S(=O)(=O)N2Cc3ccccc3CC2C(=O)Nc2nccs2)c1 (configuration not stated)
  10, -1.4, 4, 6%, 0.6, 1.4%, -1.0%
COc1ccc(Cl)cc1NC(=O)COC(=O)CCCN1C(=O)c2ccccc2C1=O
  12, 7.0, -7, -6%, -0.6, -1.6%, 3.2%
O=C(COc1ccc2ccccc2c1)Nc1ccncc1
  1, 3.7, 3, -7%, -0.4, ·, 0.7%
CN1CCN(c2ncc3nc(-c4cccs4)c(=O)n(-c4ccccc4)c3n2)CC1
  ·, ?, ·, 6%, ·, ·, -0.2%
Cn1cccc1C(=O)/C(C#N)=C/c1ccc(F)cc1
  5, ?, -2, 0%, 1.2, ·, 1.0%
CC(C)NCC(O)c1ccc(NS(C)(=O)=O)cc1 (configuration not stated)
  7, 0.8&6.0&0.5&-1.2, -1, -7%&20%&26%, -0.7, 0.2%, -0.3%
COc1ccc(NC(=O)CSc2nc(O)cc(=O)n2-c2ccccc2OC)cc1
  28, 4.0, -20, -16%, 0.8, -0.9%, 3.1%[38.3 µM]
COc1ccc(CN(CC(=O)NC(C)C)C(=O)CCC(=O)Nc2nccs2)cc1
  0, ·, -10, 14%, -0.5, ·, 0.8%
COC(=O)C(C)Oc1ccc2c(-c3cccc([N+](=O)[O-])c3)cc(=O)oc2c1 (configuration not stated)
  -11, 3.5, 22, -9%, 2.6, 2.3%, ?
Cc1ccc(C)c(C(=O)C(C)Sc2nc3nn(-c4ccccc4)c(=O)c-3c3n2CCCCC3)c1 (configuration not stated)
  3, -1.1, 24, 12%, -0.6, 1.6%, 1.6%
COC(=O)N/N=C\c1cccc(OC(=O)c2cccs2)c1
  9, -2.8, -2, 6%, -0.2, ·, 6.2%
Cc1ccc(S(=O)(=O)NCc2ccc(C(=O)N3CCCC3)cc2)cc1
  -1, 1.4, 11, -3%, 0.0, 0.2%, 0.5%
O=C1CCC(=O)N1CC(O)COc1ccccc1 (configuration not stated)
  10, -2.1, -4, 3%, 3.0, 1.5%, -1.0%
CCN1CCCC1CNC(=O)CCc1nc(-c2ccc(C)cc2)no1 (configuration not stated)
  0, -0.6, -3, 11%, -0.1, -3.1%, -2.0%
O=C(Nc1cccc(O)c1)c1cccc(NC(=O)c2cccs2)c1
  1, 4.2, 5, 15%, 0.4, ·, 4.7%
Cc1ccc(OCCCn2c(=O)sc3ccccc32)cc1
  -7, 0.2, 23, -7%, -0.1, -2.2%, 0.9%
CCCCN(C(=O)c1cc(S(=O)(=O)N2CCCCCC2)ccc1OC)c1c(N)n(CCC)c(=O)[nH]c1=O
  6, ·, 18, ·, 0.3, -2.2%, -1.2%
CCCCNC(=O)OC(C)CNC(=O)OC (configuration not stated)
  -5, -5.0, 11, 6%, 1.4, 1.1%, -0.7%
COc1ccc(-c2c(C)c3ccc(O)c(CN4CCN(C)CC4)c3oc2=O)cc1OC
  ·, ·, 20, ·, -0.1, 4.8%, 1.0%
O=C(CN1c2ccccc2Sc2ccccc21)NNC(=S)Nc1ccc(Cl)cc1
  0, 1.4, -12, 5%, 0.3, 25µM*, ?
O=c1c2sc3nc(N4CCOCC4)c4c(c3c2ncn1C(c1ccccc1)c1ccccc1)CCCC4
  ·, ·, 7, ·, -0.7, ?, 1.8%
Cc1cc(=O)oc2cc(OC(C)C)ccc12
  17, 2.3, -6, -2%, -0.4, ?, -2.0%
CCOC(=O)N1CCC(NC(=O)C2CCCN(Cc3nc(-c4cccc(C)c4)oc3C)C2)CC1 (configuration not stated)
  20, 1.4, 7, 12%, -0.3, -0.7%, 0.4%
O=C(Oc1ccccc1F)c1nc(SCc2ccc(F)cc2)ncc1Cl
  ·, ·, -2, ·, -0.3, -6.8%, 2.5%
COc1ccc2c(C(=O)CN3CCN(CCO)CC3)c[nH]c2c1
  5, 4.4, -18, 19%, 1.0, -2.5%, ?
CC(=O)Nc1nc(C)c(CCC2OCCO2)c(=O)[nH]1
  -11, 6.9, 5, 10%, -0.2, -0.4%, 1.3%
Cc1ccc(-c2nn3c(C)nnc3c3ccccc23)cc1S(=O)(=O)NC(C)(C)CO
  3, -0.5, 21&-19, 34%[activator], 0.6&2.0, -14%, 4.5%&13%
O=C(CC1Sc2ccccc2NC1=O)Nc1cccc(C(F)(F)F)c1 (configuration not stated)
  ·, ·, -3, ·, 1.5, 0.0%, 1.0%
O=C(NNC(=O)c1cccs1)c1ccco1
  3, -1.0, 10, 89µM*, 1.1, ·, -0.1%
COc1ccc(NC(=O)C2CCC(CNc3c(N4CCCCC4)c(=O)c3=O)CC2)cc1OC (configuration not stated)
  9, 2.8, -3&30, -19%, -0.7&-0.3, -0.1%, -1.6%&-0.1%
O=C1CSC(=S)N1N=Cc1cccc2ccccc12
  ·, ·, -4, ·, 0.7, 1.6%, -3.2%
O=C(C[n+]1cc(-c2ccc(Cl)cc2)n2c1CCC2)Nc1nc(-c2ccccc2)cs1
  -1, 1.1, 10, -16%, -0.4, -2.8%, 1.5%
CCNC(=S)N(CCc1c(C)[nH]c2ccc(Cl)cc12)Cc1cccnc1
  ?, 4.9, -7, -2%, 1.2, ·, 0.5%
CSc1n[nH]c(-c2sccc2OCc2ccc(C)cc2)n1
  28, 1.4, -2, 13%, -0.3, -1.2%, 16%[38.3 µM]
Cn1c(=O)n(CC(N)=O)c(=O)c2c1nc1n2CCCN1Cc1ccccc1
  7, -1.7, -16, 5%, 0.0, -2.2%, 3.0%
O=C(COC(=O)C1CCN(c2ccc(C(F)(F)F)cn2)CC1)Nc1ccc(Cl)cc1
  3, ·, 30, ·, 0.2, -6.6%, -0.9%
CN(C)CCCNC(=O)/C=C/c1ccc2c(c1)OCO2
  -3, 0.9, 1, 5%, 0.8, 16µM*, -0.6%
Cn1c(=O)c2c(nc(N3CCN(C(=O)c4ccco4)CC3)n2CCSc2ncccn2)n(C)c1=O
  -6, -2.9, 4, 28%, -0.1, ·, -0.4%
O=C(Nc1ccc2c(c1)OCCO2)C1CCCC1
  -2, ·, 1, ·, -0.8, 2.2%, 1.8%
COc1ccc(C(CNC(=O)CNC(=O)c2ccccc2Cl)N2CCCC2)cc1 (configuration not stated)
  2, ·, 5, ·, 0.3, ·, -3.7%
Cc1cccc(C(=O)N2CCN(c3ccc(N4CCOCC4)nn3)CC2)c1
  9, 2.4, 13, 16%, -0.6, ·, 2.1%
CC(NC(=O)c1cc(S(=O)(=O)N2CCOCC2)ccc1F)c1ccc(-n2ccnc2)cc1 (configuration not stated)
  -6, ·, -10, ·, -0.2, -5.9%, -0.4%
COc1cccc2c1cc1c(=O)n(CC(=O)N3CCN(c4cccc(C)c4C)CC3)nc(C)n12
  ·, ·, -3&4, ·, -0.1&-0.1, ?, 2.3%&2.4%
CCOc1ccc(CN(C)CC(=O)NNC(=O)c2ccc(Cl)cc2)cc1OC
  -12, 3.1, 14, 13%, 0.6, 5.1%, -1.4%
Cc1cccc(C(=O)NCC(=O)OCC(=O)N2CCc3ccccc32)c1
  1, 1.7, 33, 19%, -1.3, -10%, -1.3%
COc1cccc(-c2nc(SCc3cc(=O)c4cc(Cl)ccc4[nH]3)n[nH]2)c1
  ·, ·, 44, ·, 3.9, 3.1%, 5.9%
COCCCNC(=O)C[C@H]1C[C@H](C(=O)N(C(C)C)C(C)C)[C@@]2(C)c3[nH]c4cc(-c5ccco5)ccc4c3CCN2C1=O
  ·, ·, -3, ·, 0.3, 3.2%, 1.2%
COc1ccccc1CNC(=O)CCc1cn(C)c2ccccc12
  4, -2.1, 24, 6%, 0.4, ·, 3.3%
COc1ccc(NC(=O)CN2CCN(CC(=O)Nc3ccc(OC)c(OC)c3)CC2)cc1
  -9, -0.4, 20, 9%, -0.4, -1.1%, -2.7%
COc1cc(-c2noc(C)c2C(=O)NCCc2cccs2)cc(OC)c1OC
  ·, ·, -3, ·, -0.9, 0.7%, -1.3%
COc1ccccc1/C=C(\NC(=O)c1ccccc1)C(=O)NCc1ccco1
  1, -2.9, -2, 16%, 2.3, ·, 1.3%
C=C(C)c1cccc(C(C)(C)NC(=O)N2CCN(CC)CC2)c1
  6, 2.8, -7, 16%, -0.7, 1.5%, -1.3%
